# T cruzi repl: blocks replication of Trypanosoma cruzi; T. cruzi beta-gal in NIH3T3, luminescence, 90 h; inhibition, % (test concentration not listed); actives 1.4% (n = 300,000); AID 1885;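 active = mean inhibition across valid replicates above about 55%, limit read from the data; inconclusive = mean below that limit but half or more replicates reach it; inactive = mean below it, under half of replicates reach it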;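 also: signal also drops with host cell toxicity which is not excluded here; 0% = plate median of DMSO wells and 100% = zero luminescence signal; higher percent means less beta-gal luminescence so fewer parasites; stock transfer was 50 nL into about 50 µL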
# Vif TR-FRET: inhibitors of Vif binding to APOBEC3G peptide, primary screen, biochemical, TR-FRET, GST-Vif 1-94, biotin-A3G peptide, dose response retest (AID 1117319); TR-FRET GST-Vif / biotin-A3G peptide binding; higher % means a stronger effect; test concentration not given here; strong numbers were not always called active; one-dose inhibition, %; IC50 in µM for titrated hits; actives 0.57% (n = 260,000);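 active = above the screen mean plus three standard deviations and confirmed in dose response; inconclusive = results disagree or hit not tested in dose response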;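 also: Vif residues 1-94 fused to GST binding biotinylated APOBEC3G peptide 110-148; 0% = full assay without inhibitor and 100% = GST in place of GST-Vif; retest series ran down from 100 µM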
# RanGTP-Impb inh: disruptors of Ran-importin-beta complex formation – biochemical, FRET, CFP-Ran, YFP-importin-beta, homogeneous, primary screen. cell-free CFP-Ran/YFP-importin-beta FRET ratio. inhibition, % (no concentration beside the values). actives 1.1% (n = 300,000). AID 2216;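 active = most replicates above 15%; inconclusive = exactly half above 15%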;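 also: 0% = DMSO wells and 100% = Ran loaded with GDP instead of GTP; wells of about 40 µL received 100 nL stock; the first replicate is given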
# A1 inh: inhibitors of the anti-apoptotic protein A1, read as caspase activation; MEF A1-2A-BIM cells, Caspase-Glo 3/7 luminescence, 3 h; percent of clofoctol response, vehicle zero; actives 0.066% (n = 330,000); caspase activation, % (concentration not given with the values);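 active = over half of replicate activation scores above 10%, or exactly half above 10 with the replicate mean above 10; inconclusive = replicate mean below 10 yet half the replicates above 10; inactive = over half of replicates below 10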;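 also: wells of about 30 µL received 50 nL stock; many hits fall short of the cut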
# Calb FLC: affects C. albicans growth with fluconazole; C. albicans CaCi-2 (fluconazole-resistant clinical isolate) + fluconazole, Alamar Blue growth, 48 h; growth inhibition, % (test concentration not listed); actives 0.57% (n = 300,000);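 active = most replicates above 75%; inconclusive = exactly half above 75%; inactive = most below 75%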;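 also: all wells also contain fluconazole at 8 µg/ml as a sub-toxic cotreatment; 0% = median of DMSO wells and 100% = median of geldanamycin control wells; wells of about 8 µL received 7.5 nL stock; the first replicate is given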
# AF4-AF9 inh: blocks AF4 peptide binding to human AF9; P42568; AlphaScreen, biotin-AF4 peptide binding to FLAG-AF9; inhibition, % at 10 µM; actives 0.47% (n = 350,000); AID 651704;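 active = every replicate reaching a set inhibition limit, whatever the replicate mean, cut at about 25% in these data; inconclusive = mean inhibition reaches that limit but some replicates miss it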;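 also: 0% = plate neutral control median and 100% = total signal loss; the record names both 10 and 1 µM as test concentration; the first replicate is given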
# Target sequence (P42568 whole entry, looked up): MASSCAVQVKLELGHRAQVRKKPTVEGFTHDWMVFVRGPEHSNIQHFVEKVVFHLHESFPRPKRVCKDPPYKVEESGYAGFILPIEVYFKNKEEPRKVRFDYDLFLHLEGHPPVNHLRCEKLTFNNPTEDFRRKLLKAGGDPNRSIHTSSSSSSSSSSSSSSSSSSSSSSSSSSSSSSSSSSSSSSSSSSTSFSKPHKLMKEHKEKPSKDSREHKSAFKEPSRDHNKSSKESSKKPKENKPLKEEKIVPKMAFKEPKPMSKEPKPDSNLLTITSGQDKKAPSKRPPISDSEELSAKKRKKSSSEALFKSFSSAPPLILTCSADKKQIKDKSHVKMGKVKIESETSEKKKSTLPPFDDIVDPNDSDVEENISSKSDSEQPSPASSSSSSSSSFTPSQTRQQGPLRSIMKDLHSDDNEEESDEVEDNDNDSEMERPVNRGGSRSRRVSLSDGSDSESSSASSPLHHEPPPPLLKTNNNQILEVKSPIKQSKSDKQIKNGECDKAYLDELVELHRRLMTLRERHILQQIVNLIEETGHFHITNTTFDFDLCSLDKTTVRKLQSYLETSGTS
# Ecoli rRNA inh: inhibits bacterial ribosomal RNA function over humanized ribosomes; GFP signal change (wild-type ribosome), % (test concentration not listed); actives 1.6% (n = 350,000); E. coli WT GFP vs humanized-ribosome RFP mutants, fluorescence, 24 h; hits give low values; DMSO median 0, no signal -100;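 active = significant combined selectivity score with lowered wild-type GFP, culture density cut under 30%, mutant RFP and density less affected; inactive = any of these conditions unmet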; also: one replicate is shown; some compounds called inactive have numbers as strong as hits
# Beta cell apopt: blocks beta cell apoptosis | AID 435005 | actives 0.8% (n = 300,000) | INS-1E cytokine-induced death, ATP luminescence, 48 h; percent of positive-control rescue, neutral wells zero | protection from apoptosis, % (no concentration beside the values);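 active = all replicates at 75% or more, or half of them and the mean; inconclusive = half reach 75% but not the mean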;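 also: 0% = cytokine-treated negative control wells and 100% = positive control rescue; higher means more ATP so stronger rescue from cytokine killing; wells of about 40 µL received 100 nL stock; the first replicate is given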
# Ecoli rRNA inh OD600: second read-out of Ecoli rRNA inh, no call of its own (marks repeat the call); OD600 change, %; measured here: OD600 growth;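 optical density of the mix in the first replicate; 0 = DMSO median and -100 = no signal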
# Ecoli rRNA inh RFP: further read-out of Ecoli rRNA inh, marked with its call; RFP signal change, %; measured here: RFP humanized mutant strains;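 first replicate; 0 = DMSO median and -100 = no signal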
# * = called active by the depositor; u = inconclusive; x = not tested or not shown; & = joins results of further samples.
SMILES,T cruzi repl,Vif TR-FRET,RanGTP-Impb inh,A1 inh,Calb FLC,AF4-AF9 inh,Ecoli rRNA inh,Ecoli rRNA inh OD600,Ecoli rRNA inh RFP,Beta cell apopt
N#Cc1cccc(C(c2nnnn2CCc2ccccc2)N2CCN(C3CCCCC3)CC2)c1 (centres undefined),48.2,-3.9%,0.5,0.7,26.9,6.5,12.8,-0.3,-0.6,-6.0
O=C(CSC1=N/C(=C/c2ccco2)C(=O)N1c1ccc(OC(F)F)cc1)NC1CCS(=O)(=O)C1 (centres undefined),-1.7,u,3.6,-0.6,34.7,4.0,18.1,24.3,4.3,-1.1
O=C(NCc1ccccc1)C1=C[C@@H](C2CCCCC2)C[C@@H](OCCCCO)O1,11.4,x,-1.5,-0.2,15.1,-1.6,4.9,6.7,4.0,0.1
C[C@H](CO)N1C[C@H](C)[C@@H](CN(C)S(=O)(=O)c2ccccc2)Oc2c(NC(=O)C3CCCCC3)cccc2C1=O,x,x,x,0.2,x,-6.9&3.5,-2.2&-9.1,-3.0&-5.7,-1.4&2.7,6.0
CCN(CC)c1ccc(/C=N/NC(=O)C(O)(c2ccccc2)c2ccccc2)o1,6.9,-5.8%,u,0.9,0.1,x,x,x,x,2.1
Cc1sc2nc(C(C)C)nc(SCC(=O)N3c4ccccc4CC3C)c2c1C (centres undefined),18.3,x,1.3,-0.6,0.1,x,x,x,x,-3.4
COc1ccccc1C1(O)CC2CCC(C1)N2S(=O)(=O)c1ccc(C(C)=O)cc1 (centres undefined),5.7,-0.1%,-0.7,-0.3,-26.0,x,x,x,x,-3.4
COc1ccc(N2CCN(C(=O)c3ccc(-c4nc5ccccc5s4)o3)CC2)cc1,x,-5.4%,x,-0.1,x,1.1,x,x,x,-1.2
c1ccc(-c2csc(Nc3cccnc3)n2)cc1,19.2,5.2%,1.0,-1.5,17.6,-6.9,9.7,2.6,2.2,-2.6
CC1(CCc2ccccc2)NC(=O)N(Cc2cc([N+](=O)[O-])cc3c2OCOC3)C1=O (centres undefined),11.8,5.4%,-3.8,0.1,-23.0,-1.4,-24.4*,-12.3*,1.6*,4.2
CCOc1ccccc1CN1CCN(S(=O)(=O)CC)CC1,-0.9,8.0%,-0.1,0.9,1.5,x,x,x,x,-4.2
O=[N+]([O-])c1ccc(-c2nnc3n2CCCCC3)cc1,3.2,-12.1%,-3.9,1.1,-7.0,-1.5,1.7,6.9,0.4,-5.0
COc1cc(/C=N/Nc2ccc(C(=O)O)cc2)ccc1O,-14.7,8.1%,-0.1,-9.1,21.6,3.6,x,x,x,4.7
CCOC(=O)N1CCN(c2nc3ccccn3c(=O)c2C=O)CC1,-14.6,0.6%,2.6,0.4,11.4,-0.7,11.2,8.7,2.0,9.1
COC(=O)c1ccc(C(=O)N(Cc2ccccc2)c2ccccc2)cc1,8.2,x,0.5,0.0,17.4,1.7,-6.0,-20.6,0.4,1.1
CC(C)C(=O)Nc1ccc(C(=O)N/N=C/c2cc(Br)cc(Br)c2O)cc1,10.9,-12.0%,0.0,0.0,-14.5,0.6,11.9,16.1,2.5,79.0*
Cc1cc(=O)[nH]c2ccc(S(=O)(=O)Nc3ccccc3)cc12,1.5,-6.3%,1.4,0.2,-4.4,-5.7,-5.6,-12.5,0.2,-5.0
CC(C)NC(=O)CSc1nnc(C2CC2)n1-c1ccccc1,-16.2,0.5%,-0.8,-0.2,3.7,x,x,x,x,0.5
FC(F)Oc1ccc(NC(=S)NCc2cccnc2)cc1,-13.8,-11.3%,0.2,0.0,20.4,-0.9,-7.0,-12.0,-1.5,x
CCN1CCN(c2nc(-c3ccccc3)c3ccccc3n2)CC1,34.7,x,4.8,0.7,-6.9,-2.6,-5.8,-18.2,1.1,0.1
O=C(NCc1ccc2c(c1)OCO2)Nc1cccc(Cl)c1,-12.1,x,-1.9,-0.8,-14.4,-8.1,7.3,10.0,-1.1,-5.2
Cc1cc(C(=O)COC(=O)c2csc3c2CCCC3)c(C)n1C,2.8,-4.3%,1.4,0.7,-9.3,x,x,x,x,-1.0
COc1ccc(C(C(=O)NC2CCCCC2)N(C(=O)c2sc(C)nc2C)c2ccccc2)cc1 (centres undefined),5.4,x,-0.8,-0.3,9.0,2.4,-5.1,-1.3,-2.4,1.5
O=C(CCNC(=O)c1ccccc1Cl)NCC(c1ccc(F)cc1)N1CCOCC1 (centres undefined),4.6,7.7%,-0.8,-0.6,-1.4,u,5.6,22.0,-1.3,0.7
Cc1ccc(-c2cc(C(F)F)nc(NCc3cccs3)n2)cc1,10.7,-15.7%,4.0,-0.9,-5.4,x,x,x,x,3.4

# Following part.
SMILES,T cruzi repl,Vif TR-FRET,RanGTP-Impb inh,A1 inh,Calb FLC,AF4-AF9 inh,Ecoli rRNA inh,Ecoli rRNA inh OD600,Ecoli rRNA inh RFP,Beta cell apopt
O=S(=O)(NCC(Nc1ccccc1)c1ccccc1)c1ccc(Cl)cc1 (centres undefined),41.1,3.7%,u,-1.8,-8.4,x,x,x,x,-5.1
CC(C)C(=O)Nc1ccc(NC(=S)NC(=O)c2ccccc2F)cc1,3.6,x,2.7,-0.8,1.8,-2.1,-12.0,-3.2,6.2,-5.4
Cc1ccc2c(n1)CC(C)(C)CC2=O,-5.2,1.1%,-3.4,-0.5,-16.7,x,x,x,x,2.9
COc1ccc(CCC(=O)Nc2ccc(-c3noc(-c4ccc(OC)c(OC)c4)n3)cc2)cc1,7.2,-26.9%,-0.8,-1.3,9.8,x,x,x,x,x
C[C@H](N)c1nnc(SCC(=O)c2ccc(Cl)cc2)o1,-14.5,0.9%,1.2,x,46.0,x,x,x,x,x
COc1ccc(S(=O)(=O)CCC(=O)N2CCN(c3ccccc3F)CC2)cc1,-8.6,-4.6%,0.1,-0.4,8.6,-1.5,0.8,-5.2,-2.3,-3.2
NC(=O)N/N=C/c1cc(Br)ccc1OC(=O)c1ccccc1,-14.7,-3.3%,x,-1.7,-17.1,1.4,-4.7,-3.8,-0.3,-4.3
CCc1ccc(OC(C)c2nnc(SCC(=O)Nc3ncccc3C)n2C)cc1 (centres undefined),-1.0,-2.2%,-3.0,-0.5,-0.5,1.7,-1.0,-5.2,2.3,-7.8
O=C(Cn1nnc(-c2cccc(C(F)(F)F)c2)n1)N1CCCCCC1,7.7,1.7%,4.4,-0.2,-2.5,x,x,x,x,-4.3
Cc1nn(Cc2ccccc2)c(C)c1NC(=O)c1cc2nc(-c3ccco3)cc(C(F)(F)F)n2n1,20.0,-1.4%,2.7,0.1,x,x,x,x,x,-2.6
COc1ccc(Br)cc1C(=O)Nc1ccccc1N1CCCC1,22.6,x,0.3,1.5,6.5,3.7,-15.6,-17.4,-2.6,6.5
CC(=O)c1ccccc1OCC(=O)Nc1cccc(S(=O)(=O)N2CCCC2)c1,x,-5.9%,x,-0.1,x,-3.0,x,x,x,8.8
COCCN(C(=O)C1CC1)c1nnc(-c2ccc(C)cc2)s1,2.9,3.7%,-0.3,-1.3,-15.3,x,x,x,x,-0.2
O=C(CCCc1ccccc1)Nc1cccnc1,-0.6,14.6%,0.1,-0.1,-19.0,x,x,x,x,-3.1
CCOc1ccc2nc(N3CCC(C(=O)Nc4nnc(CC)s4)CC3)sc2c1,-2.8,0.0%,u,0.2,6.9,-67.6,-2.9,1.3,-1.4,x
COc1ccc(C(=O)N2CCN(C)C(=O)[C@@H]2C)cc1OC1CCN(C(C)=O)CC1,-8.7,x,0.5,-0.3,8.9,-0.6,4.6,13.9,2.9,3.2
COc1ccc(NC(=O)CCCC(=O)OCC(F)(F)C(F)F)cc1,9.5,1.7%,-3.3,0.0,-11.1,x,x,x,x,-6.9
O=C1c2ccccc2-c2onc3ccc(NCCCn4ccnc4)c1c23,29.4,27.8%,-277.7,-0.2,30.5,x,x,x,x,21.4
O=C1N=C(N2CCOCC2)S/C1=C\c1ccncc1,-4.5,5.1%,-1.1,0.6,-6.3,-0.7,6.0,5.1,0.3,-8.0
CN(C)CCNc1oc(/C=C/c2ccccc2)nc1C#N,-10.2,7.3%,-4.9,-0.5,-2.0,x,x,x,x,-4.8
Cc1cc(C)c(S(=O)(=O)c2ccc(Cl)cc2)c(=O)[nH]1,-1.2,4.9%,-0.4,1.8,-0.1,0.8,1.1,9.1,0.1,2.5
CCOc1cc(C(=O)CSc2nnc(CNc3ccc(Cl)cc3)o2)ccc1NC(=O)CC,-38.2,1.3%,-1.6,8.7*,-10.8,-10.9,-20.4,-21.6,-1.0,67.3
CCc1cc2c(=O)[nH]c(CC(N)=O)nc2s1,-4.9,6.3%,-1.6,-0.8,-5.0,-0.7,11.9,5.7,3.8,-6.8
COc1ccc(C2/C=C\CN(C(=O)Oc3ccc(C(F)(F)F)cc3)CC(=O)N2Cc2ccc(F)cc2)cc1 (centres undefined),8.2,5.1%,1.4,-0.2,8.1,-15.1,2.2,-7.4,-2.0,-7.1
COc1ccc(Cc2noc(CN(C)Cc3ccc(-n4cccn4)cc3)n2)cc1OC,13.0,3.5%,u,-0.3,17.5,-8.1,-8.9,-3.4,-6.8,0.2

# Continued.
SMILES,T cruzi repl,Vif TR-FRET,RanGTP-Impb inh,A1 inh,Calb FLC,AF4-AF9 inh,Ecoli rRNA inh,Ecoli rRNA inh OD600,Ecoli rRNA inh RFP,Beta cell apopt
CCN(c1ccc(NC(=O)CSc2ccc3c(c2)OCCO3)cc1)C(C)C,x,-2.6%,x,0.1,x,5.1,8.7,-23.9,-3.7,-8.1
CSc1c(CC(=O)NCCCO)n(Cc2ccccc2)c2ccccc12,5.0,x,8.8,0.2,5.5,-1.7,-0.3,1.9,-4.1,-8.0
Cc1nn(C(=O)CCCn2cc([N+](=O)[O-])cn2)c(C)c1Cl,-3.7,2.9%,-2.8,-0.5,-23.5,0.9,12.2,12.2,5.7,0.3
Cc1ccc(C(C(=O)NC2CCCCC2)N(CC2CCCO2)C(=O)CNC(=O)c2cccs2)cc1 (centres undefined),0.5,-1.7%,-1.0,0.4,5.8,x,x,x,x,-1.9
O=C(NC1CCCCCC1)c1cccnc1Sc1ccc(Cl)cc1,2.6,-2.5%,-0.9,1.7,-3.5,-0.8,11.6,18.4,-5.2,2.9
Cc1ccc(C)c(NC(=O)CN(C)C(=O)c2ccccc2OCc2ccccc2Cl)c1,-0.6,-2.0%,-0.1,0.0,-2.5,-13.8,0.4,-2.3,-1.2,-2.0
Cc1ccc(C)c(NC(=S)N(CCN(C)C)C(C)c2ccccn2)c1 (centres undefined),-1.9,x,4.7,-0.3,4.8,14.5,0.8,0.8,5.9,-2.0
COCCn1c(C)cc(C(=O)CSc2ncn[nH]2)c1C,37.1,-1.1%,-3.1,0.3,-14.7,x,x,x,x,-6.3
CCCNC(=O)C(=O)Nc1ccc2c(c1)N(S(=O)(=O)c1cccs1)CCC2,11.4,1.4%,0.8,0.6,7.2,-0.3,4.2,3.4,0.7,8.2

# The list is partial (hit frequency here may not be typical).
